Bioassay records (PubChem BioAssay)
Yeast superoxide = caloric restriction mimetics inhibiting age-related superoxide in yeast. S. cerevisiae aged cells, superoxide DHE fluorescence; stronger effect = lower value. AID 2690. actives 0.18% (n = 330,000). superoxide response (% of plate mean), % at 10 µM;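 active means superoxide response under a set limit, about three screen SD below normal, cut at about 65% in these data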;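 further: yeast aged for seven days with compound at 30 °C before DHE staining; 100% = average MFI of all compound-treated wells on the plate with controls excluded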
* marks the source's active call; other numbers are inactive results. Only part of the results is shown; most or all hits stand in other tables.

SMILES	Yeast superoxide
COc1ccc(/C=C/C(=O)O)cc1OC	88.4
O=C(O)c1cccnc1SCCc1ccccc1	97.7
CCN(CC)CC(=O)Nc1c(C)cc(C)cc1C	99.4
CN(C)c1ccc(N/C=C/C(=O)C(F)(F)F)cc1	93.7
O=C(O)c1ccnc(C(=O)O)c1	72.8
Cc1nc2ccccc2c(-c2ccccc2)c1CC(=O)O	95.8
O=C(N/N=C/c1ccc([N+](=O)[O-])s1)c1cccnc1	107.8

Three structures from above, arranged by molar mass, descending.
SMILES	Yeast superoxide
Cc1nc2ccccc2c(-c2ccccc2)c1CC(=O)O	95.8
O=C(N/N=C/c1ccc([N+](=O)[O-])s1)c1cccnc1	107.8
CN(C)c1ccc(N/C=C/C(=O)C(F)(F)F)cc1	93.7

Retrieved by structure from the list above, three records:
SMILES	Yeast superoxide
O=C(O)c1cccnc1SCCc1ccccc1	97.7
CN(C)c1ccc(N/C=C/C(=O)C(F)(F)F)cc1	93.7
CCN(CC)CC(=O)Nc1c(C)cc(C)cc1C	99.4
